Rango-impB inh: qHTS Assay for Inhibitors of Rango (Ran-regulated importin-beta cargo) - Importin beta complex formation; Importin subunit beta-1 (Homo sapiens), Q14974; hit rate 0.031% among 340,000; Rango CFP/YFP FRET sensor + importin beta, 45 min; AID 540263, 2011; Potency, µM (series often up to 92.2 µM), for inactives: at the highest dose inhibition of complex formation; active = rising FRET ratio curve, often small or poorly fitted; inconclusive = mostly compound fluorescence or quenching in the first reads; inactive = flat curves in all reads;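 further: potency means the concentration at half of the fitted maximal effect; 0% = DMSO wells and 100% = buffer wells lacking importin beta; nearly all actives have a fitted effect of over 15% in size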
Target sequence (Q14974 whole entry, looked up): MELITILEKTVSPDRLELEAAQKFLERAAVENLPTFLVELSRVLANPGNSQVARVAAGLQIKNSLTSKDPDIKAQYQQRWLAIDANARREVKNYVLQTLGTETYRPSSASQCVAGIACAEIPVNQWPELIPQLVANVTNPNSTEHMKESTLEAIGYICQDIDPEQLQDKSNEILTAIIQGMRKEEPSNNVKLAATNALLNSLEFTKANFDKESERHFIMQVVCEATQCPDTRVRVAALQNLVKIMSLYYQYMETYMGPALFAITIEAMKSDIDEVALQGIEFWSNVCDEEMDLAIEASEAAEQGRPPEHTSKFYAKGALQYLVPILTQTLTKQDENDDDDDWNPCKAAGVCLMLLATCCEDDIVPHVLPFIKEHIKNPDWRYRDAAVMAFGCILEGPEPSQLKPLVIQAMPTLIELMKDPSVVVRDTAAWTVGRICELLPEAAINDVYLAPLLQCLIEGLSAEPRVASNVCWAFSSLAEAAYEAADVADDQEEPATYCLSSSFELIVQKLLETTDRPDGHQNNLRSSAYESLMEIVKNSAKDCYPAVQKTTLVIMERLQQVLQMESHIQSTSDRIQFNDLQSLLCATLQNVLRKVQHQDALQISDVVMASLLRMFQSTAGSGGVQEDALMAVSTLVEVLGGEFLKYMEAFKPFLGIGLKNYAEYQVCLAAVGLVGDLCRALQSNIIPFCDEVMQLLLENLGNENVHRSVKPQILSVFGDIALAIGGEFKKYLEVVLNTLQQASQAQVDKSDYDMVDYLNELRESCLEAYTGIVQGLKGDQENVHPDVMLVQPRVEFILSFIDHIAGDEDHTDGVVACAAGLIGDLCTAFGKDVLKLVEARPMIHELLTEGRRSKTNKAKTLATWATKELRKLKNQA
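FRET biosensor (snurportin 1 IBB flanked by EYFP and cerulean), 50 nM, with compound 5 min, then 0.125 microM importin beta in PBS, 1 mM DTT, 0.02% Tween-20, 0.1% BSA. CFP/YFP ratio read after 45 min at room temperature; pre-read flags interference.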
miR-21 reporter: qHTS Assay for Modulators of miRNAs and/orActivators of miR-21; HeLa miR-21 FLuc reporter, luciferase, 48 h; Potency, µM (top dose mostly 38.3 µM), for the others: top-dose reporter change, positive = more light; 340,000 tested, under 10 active; AID 2288, 2010; active = well fitted rising curve with a large enough effect; inconclusive = small, poorly fitted or top-dose-only effect; inactive = no such curve, though single readings can be large or run the other way;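 further: % of control where 0% means no effect; miR-21 action dims this reporter so a rising signal means less miR-21 action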
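Compounds were titrated across several concentrations (up to approximately 40 uM) and incubated 48 hours with HeLa miR-21-FLuc reporter cells (miR-21 target sequence downstream of FLuc, endogenous miR-21). Readout was firefly luciferase luminescence after lytic detection reagent.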
GLA inh pH 4.5: qHTS Assay for Inhibitors of Human alpha-Galactosidase at pH 4.5 | purified enzyme, 4-MU-alpha-Gal fluorescence, pH 4.5 | activity change, negative = inhibition, % at 105 µM | Alpha-galactosidase A (Homo sapiens), P06280 | 230,000 tested, under 10 active; inconclusive = small, poorly fitted or top-dose-only inhibition, or a rising curve; inactive = flat fitted curve, though single readings scatter; no compound was filed as active;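 further: 0% = full activity with enzyme and -100% = basal without enzyme; dose as in the result columns while the protocol names 77 µM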
Rango dissoc inh: qHTS Assay for Inhibitors of RanGTP induced Rango (Ran-regulated importin-beta cargo) - Importin beta complex dissociation. Snurportin-1 (Homo sapiens) + GTP-binding nuclear protein Ran (Homo sapiens) + Importin …. Biochemical FRET Rango-importin beta, RanGTP-induced dissociation. Potency, µM (top dose mostly 46.1 µM), inactives show at the top dose activity change, negative = inhibition. hit rate 0.071% among 340,000; active means falling FRET ratio curve, often poorly fitted, with flat reads before Ran was added; inconclusive means other falling curves, or compound fluorescence or quenching; inactive means flat or rising ratio curve;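 further: potency means the concentration at half of the fitted maximal effect; % of control where 0% means no effect; nearly all actives have a fitted effect of over 45% in size; -100% = wells without RanGTP and RCC1; the record marks most hits as doubtful in a second field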
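FRET read at 45 min, room temperature: inhibitors block the CFP/YFP signal rise when RanGTP (0.6 uM Ran, 2 mM GTP, 0.2 uM RCC1) frees Rango (0.1 uM) from importin beta (0.25 uM). Pre-read after 5 min compound exposure flags interference.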
An asterisk follows results filed as active; u = inconclusive; x = not tested or not shown; & = joins results of further samples. An excerpt; count on the stated rates, not on these rows.

#	Compound	GLA inh pH 4.5	miR-21 reporter	Rango dissoc inh	Rango-impB inh
1	COC(=O)c1ccc(CN2C(=O)c3ccccc3S2(=O)=O)cc1	9	-3%	-5%	0.1%
2	O=C(Nc1cccnc1)C1CC(c2ccc(Cl)c(Cl)c2)=NO1 (configuration not stated)	4	-5%	12%	-0.7%
3	COc1cc(CNC(C)C)ccc1OCC(=O)Nc1cccc2ccccc12	x	-13%	11%	-0.5%
4	Cc1ccc(NC(=O)CSc2nc(C)c(Cc3ccccc3)c(=O)[nH]2)cc1	2	-1%&-1%	0%	-2.6%
5	COc1ccccc1C(=O)N1CCN(Cc2c[nH]c3ccccc23)CC1	x	-2%	8%	-2.3%
6	COc1cc(-c2nnc(COC(=O)c3cccn3C)o2)cc(OC)c1OC	x	x	-9%	4.8%
7	CC(OC(=O)c1cc2c(s1)CCCCC2)C(=O)NC(N)=O (configuration not stated)	5	-19%	-10%	1.2%
8	CCc1cc2c(=O)c(-c3nc4ccccc4n3C)coc2c(CN2CCCC(C)C2)c1O (configuration not stated)	x	7%	18%	1.7%
9	CCOC(=O)c1cccc(NC(=O)CCc2nc(-c3ccccc3F)no2)c1	-4	-1%	10%	-0.6%
10	CCCc1nc(C)c(-c2ccc(OC)c(OC)c2)c(=O)[nH]1	-3	4%	3%	2.1%
11	COc1ccc(C(=O)NCC(=O)N2CCN(c3ccccc3)CC2)cc1	x	0%	-16%	-5.3%
12	Cn1c(=O)[nH]c(=O)c2c1ncn2CCN1CCCCC1	-1	-4%	9%	2.8%
13	Cc1cc(S(=O)(=O)N2CCCC2)ccc1OCC(=O)Nc1ccc(C(N)=O)cc1	x	x	10%	-0.1%
14	CCOc1ccc(N2C(=O)CC(NC3CCN(C(=O)c4cccc(Cl)c4)CC3)C2=O)cc1 (configuration not stated)	x	0%	-8%	-1.7%
15	CNC(=O)CSc1nc2nn(-c3ccccc3)c(=O)c-2c2n1CCCCC2	7	1%	0%	-0.8%
16	S=c1[nH]c2cc(-c3ccccc3)ccc2o1	10	-31%	1%	0.5%
17	O=C(CNS(=O)(=O)c1ccc(Br)s1)NCc1ccc(F)cc1	x	4%	6%	0.3%
18	Fc1ccc2[nH]c3c(N4CCN(Cc5ccc6c(c5)OCO6)CC4)ncnc3c2c1	-13	u	-4%	3.9%
19	CCCCC(=O)OC1CCC2C3CCc4cc(O)ccc4C3CCC12C (configuration not stated)	x	x	14%	0.6%
20	CC(C)Sc1nnc([C@H](C)NC(=O)OC(C)(C)C)o1	4	-3%	5%	4.6%
21	CC1CCCN(CCCNC(=O)c2ccc3c(c2)N(Cc2ccccc2F)C(=O)c2ccccc2S3(=O)=O)C1 (configuration not stated)	x	15%&18%	9%	-1.5%
22	COc1ccc(NC(=O)CN2CCCC(C)C2)c([N+](=O)[O-])c1 (configuration not stated)	-19	1%	8%	2.3%
23	Cc1noc(C)c1NC(=O)N(C)C[C@@H]1Oc2ccc(NC(=O)Cc3cn(C)c4ccccc34)cc2CC(=O)N([C@H](C)CO)C[C@@H]1C	x	x	25%	-1.4%
24	CCn1nc(NC(C)=O)c2cc3cccc(C)c3nc21	x	0%	u	4.6%
25	CCOC(=O)N1CCN(C(=O)c2ccccc2NC(=O)c2ccccc2Cl)CC1	x	-3%	-2%	-0.7%
26	O=C(CNC(=O)C12CC3CC(CC(C3)C1)C2)OCc1cc(=O)n2cc(Br)ccc2n1	9	0%	2%	2.3%
27	O=c1c2c(nc3nc(NCc4ccc(Cl)cc4)[nH]n13)CCC2	5	2%	2%	4.8%
28	CCOC(=O)c1ccc(-c2ccc3[nH]c4ccccc4c(=O)c3c2)cc1F	x	-7%	u	u
29	Cc1ccc(S(=O)(=O)N2CCC(C(=O)N3CCc4ccccc43)CC2)cc1C	x	x	-6%	0.1%
30	CCOCCCNC(=O)C1CCN(S(=O)(=O)N2CCCCC2)CC1	3	-2%	2%	-0.2%
31	COC(=O)c1sc2nc(SCc3ccccc3C)n(N)c(=O)c2c1C	-10	-2%	3%	-1.3%
32	COc1ccccc1CC(O)CC1c2c(cc3c(c2OC)OCO3)CCN1C (configuration not stated)	x	x	1%	-0.4%
33	O=c1[nH]c(C2CCN(S(=O)(=O)c3ccccc3C(F)(F)F)CC2)nc2c1nnn2Cc1cccc(F)c1	x	-8%	26%	-2.6%
34	Cc1ccc(S(=O)(=O)N2CCN(C(=O)c3ccccc3)C2C(C)C)cc1 (configuration not stated)	-3	3%	-1%	1.8%
35	CCOC(=O)c1c(NC(=O)C2C3C=CC(C3)C2C(=O)O)sc2c1CCC(CC)C2 (configuration not stated)	4	22%	-13%	-2.5%
36	COc1ccc(N2CCN(C(=O)c3ccc4c(Cl)c5c(nc4c3)CCCC5)CC2)cc1	-2	-3%&-11%	-14%	-2.3%
37	O=C1CC(Nc2cc(=O)[nH]c(=O)[nH]2)C(=O)N1c1ccccc1Cl (configuration not stated)	2	1%	17%	0.5%
38	CCOC(=O)c1sc(NC(=O)CCCn2nc([N+](=O)[O-])c(Cl)c2C)c(C(=O)OCC)c1C	1	-2%	-11%	8.1%
39	COc1ccc(OC)c(-c2nnc(SCC(=O)N3CCCc4ccccc43)o2)c1	-1	-22%	u	0.8%
40	CCOC(=O)C1CCN(C(=O)Cn2nc(C)c3c(C)n(-c4ccccc4)nc3c2=O)CC1	x	-2%	-6%	0.1%
41	O=C1CSC(c2cn(-c3ccccc3)nc2-c2ccccc2)N1Cc1ccco1 (configuration not stated)	4	11%	7%	-1.3%
42	COc1ccc(C(=O)NNC(=O)C(=O)NCc2ccccc2)cc1	9	0%	0%	3.4%
43	O=C(CSc1ccccc1C(=O)NCCCN1CCCC1=O)NCc1ccco1	5	-5%	-12%	-1.0%
44	O=C(NC(=S)Nc1cccc(Cl)c1N1CCCCC1)c1ccc2c(c1)OCCO2	-1	-24%	0%	1.1%
45	CC(C)(C)OC(=O)C[C@@H]1C/C=C\C[C@@H](CC(=O)N(CCO)Cc2ccccc2)C(=O)NCCOC1=O	x	x	4%	4.8%
46	COc1ccc(C(=O)O)cc1S(=O)(=O)Nc1cccc(C)c1	5	3%	-8%	0.3%
47	O=C(CCNC(=O)Cn1cnc2ccccc2c1=O)NCC1COc2ccccc2O1 (configuration not stated)	-1	-7%	-13%	-1.3%
48	CCOc1ccccc1CNS(=O)(=O)c1ccc2c(c1)C(C)(C)C(=O)N2C	x	5%&1%	0%	0.5%
49	COCCC1CCCCN1C(=O)c1cc(COc2ccc(-n3cncn3)cc2)on1 (configuration not stated)	x	15%	0%	0.5%
50	CN(C)CC(C)(C)CNC(=S)Nc1ccc(S(=O)(=O)N2CCOCC2)cc1	-9	-3%	2%	0.0%
51	Cc1cccc(NC(=O)c2c([N+](=O)[O-])c(C(C)(C)C)nn2C)c1	5	0%	1%	-2.2%
52	O=C(Cn1cnc2c(nnn2-c2cccc(Cl)c2)c1=O)NCc1ccccc1	-4	-2%	1%	0.4%
53	CNCc1cc(Cl)cc(OC)c1OC(C)C	-18	0%	-6%	3.0%
54	Cc1ccc(C(=O)CSc2nnc(-c3ccco3)o2)o1	1	-28%	-19%	-1.3%
55	CCOC(=O)c1c(NC(=O)CSc2n[nH]c(-c3ccco3)n2)sc(C)c1C	-4	-7%	28%	0.6%
56	CCc1ccccc1S(=O)(=O)Cc1ccc(C(=O)NC(C)C)o1	x	x	2%	-6.1%
57	Cc1ccc(N2CCN(c3ccc(C)cc3)C2c2ccncc2)cc1	6	-10%	1%	-2.5%
58	COc1ccc(/C([O-])=C(/C(=S)Nc2ccc(C)c(C)c2)n2c[n+](C)c3ccccc32)cc1OC	0	-18%	2%	7.4%
59	COc1cc(C)nc(NS(=O)(=O)c2ccccc2Cl)n1	x	1%	-22%	-2.9%
60	CC1Cn2c(nnc2-c2cc3ccccc3cc2O)S1 (configuration not stated)	-12	-12%	15%	0.6%

(further entries)
#	Compound	GLA inh pH 4.5	miR-21 reporter	Rango dissoc inh	Rango-impB inh
61	COc1cc(C)c(/C=C(\C#N)C(=O)Nc2cccc(C)c2)cc1C(C)C	4	-9%	36%	u
62	Cc1cc(=O)c(C(=O)O)cn1-c1ccc(C(C)C)cc1	-2	-1%	-11%	2.9%
63	Cc1cc(O)c(-c2cc(C(=O)NCc3ccc4c(c3)OCO4)[nH]n2)cc1C	-6	-3%	-17%	2.9%
64	Cc1ccc(NC(=O)NCCCN2CCOCC2)cc1	8	-5%	-10%	0.3%
65	Cn1c(=O)c2sccc2n2c(CCCC(=O)N3CCN(c4ccccn4)CC3)nnc12	x	2%	21%	-2.0%
66	COc1ccc(S(=O)(=O)NCC(=O)NCc2cc(=O)n(C)c(=O)n2C)cc1F	x	0%	0%	-0.3%
67	COc1cc(OC)nc(NC(=O)CN2CCN(c3ccc(F)cc3)CC2)n1	-3	-1%	-6%	2.3%
68	COC(=O)Cn1c(O)c(N=NC(=O)CNC(=O)c2ccc3c(c2)OCCO3)c2ccccc21	x	0%	-17%	-0.4%
69	COc1cccc(COCCN2CCN(S(=O)(=O)c3ccc(C)cc3)CCC2=O)c1	-2	-10%	-14%	-0.5%
70	Cc1cc(Nc2cccc(Cl)c2)nc(NCc2ccccc2)n1	-7	u	2%	1.2%
71	COc1ccc(C)cc1NC(=O)CSc1nc2ccccc2nc1N1CCCCC1	x	0%	-13%	0.1%
72	O=C(COc1ccc(Br)cc1Cl)NC(=O)Nc1ccc2c(c1)OCCO2	-20	-35%	1%	-1.5%
73	Cc1cc(C)n2nc(C(=O)OCC(=O)N(CCC#N)c3ccc(F)cc3)nc2n1	x	x	5%	-0.5%
74	CC(=O)C1=C(C)N(Cc2ccccc2)C(=O)N[C@H]1c1cccc(C(F)(F)F)c1	-3&-3	1%	-3%	0.7%
75	C=CCN1C(=O)C2(OCCCO2)c2cc(Cl)ccc21	x	-11%	-18%	2.6%
76	Oc1ccc(N2CCN(c3ncnc4sc5c(c34)CCC5)CC2)cc1	5	-2%	2%	-1.0%
77	CC(C)CNC(=O)c1nn(Cc2ccccc2)c(=O)c2ccccc12	x	5%	4%	-1.0%
78	O=C(/C=C/c1cccnc1)c1ccc([N+](=O)[O-])cc1	x	u	0%	-0.3%
79	CSC1=NC2(CCCCC2)C2=C(CCCC2)N1	-22	-11%	2%	u
80	CC(=O)Nc1ccc(SCC(=O)N(CCC#N)c2ccc(C)cc2)cc1	4	8%	-8%	-3.4%
81	CCN1CCN(S(=O)(=O)c2ccc(Cl)c(C(=O)N(C)CCOc3ccc(Cl)cc3)c2)CC1	x	x	25%	0.6%
82	Cc1cccnc1NC(=O)c1nn(C)c2c1CS(=O)(=O)c1ccccc1-2	x	-4%	1%	2.6%
83	CCc1nc2ccccc2n1CC(=O)N1CCN(S(=O)(=O)c2cccc(C(F)(F)F)c2)CC1	-7	-1%	-2%	2.0%
84	O=C(O)c1ccc(Nc2ccc([N+](=O)[O-])c3nonc23)cc1	x	2%	-8%	4.1%
85	COCCN(C(=O)CNC(=O)c1ccco1)C(C(=O)NC1CCCC1)c1ccc(OC)cc1 (configuration not stated)	x	0%	-7%	u
86	Cc1ccc(C)c(-n2c(SCC(=O)Nc3nnc(C)s3)nnc2-c2ccoc2C)c1	15	2%	-4%	4.5%
87	O=C1N=C(N2CCOCC2)S/C1=C1\C(=O)N(Cc2ccccc2)c2ccc(Br)cc21	-6	-35%	x	x
88	COc1ccccc1Nc1nnc(SCC(=O)NC2CC2)s1	x	x	8%	-1.4%
89	Cc1ccc(NC(=O)c2ccc(S(=O)(=O)NCc3ccco3)cc2)cc1	x	-9%	0%	1.7%
90	O=C(NCCc1ccco1)c1cc(COc2cccc(C(F)(F)F)c2)on1	x	0%	7%	-2.7%
91	CCOC(=O)CSc1nc2c(sc(=S)n2-c2ccccc2)c(=O)[nH]1	-19	-3%	0%	-0.6%
